Lassa entry inh = Lassa virus entry inhibition. 300,000 compounds, 1.2% hits. AID 540256. Potency, µM (highest dose often 37.9 µM), for inactives: at the highest dose activity change, negative = inhibition, most hits filed as inhibitors. Lassa virus pseudotype entry inhibition, cell reporter; control for the full effect not named in the record; active means well fitted inhibition curve with a large enough effect; inconclusive means small, poorly fitted or top-dose-only effect, or effect the other way; inactive means flat fitted curve, though single readings scatter; tested in HEK293 cells; also: % is scaled to controls: 0 for no effect and ±100 for the full control effect; nearly all actives have a fitted effect of over 50% in size; luciferase read-out
SARS PLP yeast = inhibitors of SARS-CoV papain-like protease in yeast | S. cerevisiae expressing SARS-CoV PLpro, growth rescue; control for the full effect not named in the record | Potency, µM (top dose mostly 32.9 µM), for inactives: top-dose activity, positive = growth rescue | 330,000 compounds, 0.19% hits | AID 485353; active means well fitted rising curve with a large enough effect; inconclusive means small, poorly fitted or top-dose-only effect; inactive means no such curve, though single readings can be large or run the other way; also: 0% is about no effect; nearly all actives have a fitted effect of over 55% in size; growth read by luminescence after 48 h
Cruzain inh noDet = inhibitors of Trypanosoma cruzi cruzain without detergent. P25779. purified cruzain, Z-FR-AMC fluorescence, no detergent. Potency, µM, inactives show max response, negative = inhibition, usual class: inhibitors. 200,000 compounds, 2.3% hits;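 also: plate controls were enzyme without inhibitor for no effect and buffer without enzyme for full effect; nearly all actives have a fitted effect of over 40% in size; top concentration of the series not given in the record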
Target sequence (P25779 123-467 limits assumed): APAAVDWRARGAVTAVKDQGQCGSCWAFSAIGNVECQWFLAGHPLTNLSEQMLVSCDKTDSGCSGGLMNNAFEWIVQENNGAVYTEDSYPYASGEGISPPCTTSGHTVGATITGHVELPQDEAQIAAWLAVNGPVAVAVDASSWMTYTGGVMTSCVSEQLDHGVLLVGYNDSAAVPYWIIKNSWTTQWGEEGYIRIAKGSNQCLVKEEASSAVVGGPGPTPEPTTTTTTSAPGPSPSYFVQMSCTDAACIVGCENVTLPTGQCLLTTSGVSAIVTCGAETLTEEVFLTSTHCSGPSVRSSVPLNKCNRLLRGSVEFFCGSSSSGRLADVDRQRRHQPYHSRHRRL
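Purified cruzain at 1.5 nM, pre-incubated 15 min with compound at room temperature in 100 mM sodium acetate pH 5.5, 5 mM DTT, 0.00005% Triton X-100. Reaction started with 2 uM Z-FR-AMC; AMC fluorescence increase over 60 s gives rate.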
RE007 growth inh = less growth of the S. pombe RE007 Vpr strain; S. pombe RE007 Vpr strain, BacTiter-Glo ATP luminescence, 24 h; control for the full effect not named in the record; Potency, µM (highest dose often 92.2 µM), for inactives: at the highest dose activity change, negative = less growth; 360,000 compounds, 0.21% hits; AID 651644; active = well fitted falling curve with a large enough effect; inconclusive = small, poorly fitted or top-dose-only effect; inactive = no such curve, though single readings can be large or run the other way;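 also: % is scaled to controls: 0 for no effect and ±100 for the full control effect; nearly all actives have a fitted effect of over 50% in size; the assay follows cell death caused by Vpr and the record does not say whether a fall means rescue or toxicity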
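Fission yeast strain RE007, carrying one chromosomally integrated HIV-1 vpr copy, was seeded at OD 0.01 in PMG+AL medium with 23 nL pinned compound. After 24 h at 30 °C and 99% humidity, viability was read by BacTiter-Glo luminescence.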
MARV entry inh = Marburg virus entry inhibition. 300,000 compounds, 1.8% hits. Marburg virus pseudotyped entry inhibition, cell reporter; control for the full effect not named in the record; about a third of the inactives were read at about 46 µM. Potency, µM (doses to about 37.8 µM), without a hit: top-dose activity change, negative = inhibition, actives largely listed as inhibitors; active = well fitted inhibition curve with a large enough effect; inconclusive = small, poorly fitted or top-dose-only effect, or effect the other way; inactive = flat fitted curve, though single readings scatter; tested in HEK293 cells; about a fifth of its hits are not listed in these tables; also: % is scaled to controls: 0 for no effect and ±100 for the full control effect; luciferase read-out
StopGo reporter = lowers the luciferase signal of an FMDV 2A StopGo reporter; 410,000 compounds, 1.2% hits; human cells with a luciferase reporter of 2A StopGo recoding; control for the full effect not named in the record; Potency, µM (titrated, usually from 57.9 µM), for inactives: top-dose signal change, negative = less light; active = well fitted falling curve with a large enough effect; inconclusive = small, poorly fitted or top-dose-only effect; inactive = no such curve, though single readings can be large or run the other way; tested in HEK293T cells; also: % is scaled to controls: 0 for no effect and ±100 for the full control effect; nearly all actives have a fitted effect of over 45% in size; luciferase light after 4 h
NS1 inh = blocks influenza NS1 protein function. S. cerevisiae slowed by influenza A NS1, growth recovery by OD600. Potency, µM (highest dose often 46.1 µM), inactives show at the highest dose activity, positive = more growth. 270,000 compounds, 0.4% hits; active means well fitted rising curve with a large enough effect; inconclusive means small, poorly fitted or top-dose-only effect; inactive means no such curve, though single readings can be large or run the other way; also: nearly all actives have a fitted effect of over 50% in size
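Compounds were scored for reversing the slow growth caused by influenza A NS1 in S. cerevisiae, measured by optical density at 600 nm. Assay medium contained 2% galactose at pH 6.0; NS1-free yeast of the same strain were the positive control.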
Cruzain inh Det = cruzain (T. cruzi) inhibition with detergent. P25779. 200,000 compounds, 0.43% hits. purified cruzain, Z-FR-AMC fluorescence, 0.01% Triton. Potency, µM, without a hit: max response, negative = inhibition, hits mostly inhibitors;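 also: plate controls were neutral wells for no effect and buffer without enzyme for full effect; nearly all actives have a fitted effect of over 40% in size; top concentration of the series not given in the record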
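Cruzain (1.5 nM) preincubated 15 min at RT with compound in 100 mM sodium acetate pH 5.5, 5 mM DTT, 0.01% Triton X-100. Reaction started with 2 uM Z-FR-AMC; AMC fluorescence (ex 360/em 450 nm) change over 60 s gave rate.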
An asterisk follows results filed as active; ? = inconclusive; . = no result given; & = joins results of further samples; [ ] = another dose, or the depositor's remark. Unless noted, calls follow the shape of the dose curve; as a rule, active = well fitted curve in the direction sought with a large enough effect; inconclusive = small, poorly fitted or top-dose-only effect, or another doubt; inactive = no such curve, though single readings can be large; an effect the other way counts as inactive or inconclusive. Potency is read from the fitted curve at half-maximal effect.

entry | mol | Lassa entry inh | SARS PLP yeast | Cruzain inh noDet | RE007 growth inh | MARV entry inh | StopGo reporter | NS1 inh | Cruzain inh Det
1 | O=P(O)(O)c1ccccc1OCCOCCOc1ccccc1P(=O)(O)O | 21% | 5% | -6% | 0% | 27% | 8% | -5% | 8.6%
2 | O=C(O)CNC(=S)N(Cc1ccccc1)Cc1cccs1 | 3%[46.1 µM] | -1% | . | 0% | 9%[46.1 µM] | -9% | . | .
3 | CC(=O)NC(CC(=O)Nc1cccc(S(=O)(=O)N2CCOCC2)c1)c1ccccc1 (stereo not drawn) | 3% | -1% | . | 1% | ? | 2% | . | .
4 | COc1ccc(C2NCCc3c2[nH]c2ccccc32)cc1CSc1nc2ccccc2s1 (stereo not drawn) | ? | -28% | 25µM* | 14% | ? | ? | ? | -10%
5 | COc1ccccc1-n1cnnc1SCC(=O)Nc1cc(C)on1 | -36%[46.1 µM] | 0% | . | 15% | -37%[46.1 µM] | -18% | 2% | .
6 | CC(C)(C)n1nc2c(c1NC(=O)c1ccc(S(=O)(=O)N3CCCCC3)cc1)CS(=O)C2 (stereo not drawn) | -7% | -3% | 2% | 7% | -4% | -9% | 0% | 1.3%
7 | CCOC(=O)C1=C(N)Oc2c(c(=O)oc3ccccc23)C12C(=O)N(C)c1ccccc12 (stereo not drawn) | 26% | 1% | 6% | 8% | -1%&-1%&-1% | 26% | -9% | -4.5%
8 | CCCCCNC(=O)c1c[nH]c2ccc(S(=O)(=O)N3CCC4(CC3)OCCO4)cc2c1=O | ? | -13% | 4% | 4% | -6%&-20% | 0% | -10% | -0.1%
9 | Cc1ccc(NC(=O)CN2C(=O)COc3ccc(S(=O)(=O)N4CCCCCC4)cc32)cc1Cl | ? | . | -17% | . | . | -19% | . | -1.4%
10 | CNS(=O)(=O)c1cn(CC(=O)N2CCN(c3ccc(Cl)cc3)CC2)cc1S(=O)(=O)NC | 22%[46.1 µM] | . | 22% | . | . | -5% | . | 3.3%
11 | O=c1cc(CO)oc(C(Nc2ccccn2)c2ccccc2Cl)c1O (stereo not drawn) | -15%[46.1 µM] | 13µM* | . | 1% | -16%[46.1 µM] | -16% | . | .
12 | CC(C)COc1ccc(C(=O)NC(=S)Nc2ccc(CN3CCOCC3)cc2)cc1 | -1% | 2% | 14% | 0% | 2% | -7% | 10% | -4.5%
13 | CC1CN(C(=O)CN2C(=O)NC3(CCCCCC3)C2=O)CC(C)O1 (stereo not drawn) | -19% | -11% | -1% | -5% | 1% | -3% | -8% | -0.2%
14 | Cc1ccc(S(=O)(=O)N2CCN(C(=O)COC(=O)CCOc3cc(C)ccc3C)CC2)c(C)c1 | 19% | . | . | -13% | 18% | -5% | . | .
15 | CCOc1ccc(C2C(C#N)=C(N)Oc3nc[nH]c(=O)c32)cc1 (stereo not drawn) | ? | 1% | . | -3% | ? | -8% | 3% | .
16 | Cc1nc2c(C)cccn2c1/C(O)=C1\C(=O)C(=O)N(CCN(C)C)C1c1ccncc1 (stereo not drawn) | 11% | 0% | 0% | -7% | 0% | . | 8% | -0.8%
17 | CCOC(=O)c1c2c3c(cccc3n(C)c1=O)C(=O)c1ccccc1-2 | -19%[46.1 µM] | -5% | . | 7% | ? | -12% | 3% | .
18 | CN(C)C(=O)c1ccc2c(c1)N(CC(=O)NCc1ccc(F)cc1)C(=O)C1CCCCN21 (stereo not drawn) | 3%[46.1 µM] | . | -3% | . | . | 18% | . | -0.7%
19 | COc1ccccc1CC(=O)NCCc1ccccc1 | . | -6% | . | 1% | . | 20% | -2% | .
20 | COc1ccccc1NC(=O)NCc1ccccc1F | 0% | -1% | . | -2% | 22% | 11% | -1% | .
21 | Cc1ccc(C)c(Cn2c(-c3cccs3)nc3ccccc32)c1 | -12%[46.1 µM] | . | -27% | . | -3%[46.1 µM] | -29% | . | -7.4%
22 | CC(=O)CCN1C(=O)NC2(CCCc3ccccc32)C1=O (stereo not drawn) | ? | 10% | . | 13% | -5%[46.1 µM] | 7% | 1% | .
23 | CC(C)(C)C(=O)Nc1nc(-c2ccccc2)ns1 | ? | -32% | -2% | -16% | ? | -37% | 3% | -6.8%
24 | CCCSc1nnc2n(N)c(=O)c3ccccc3n12 | -10% | 6% | -6% | -7% | -4% | 6% | -9% | 3.2%
25 | CC(=O)c1cccc(N(CC(=O)NC2CCCC2)C(=O)CNC(=O)c2cccs2)c1 | ? | 2% | . | -1% | 0%[46.1 µM] | 1% | 6% | .
26 | COCCNC(=O)COc1ccc(C)c(C)c1 | 4% | . | 2% | 7% | 2% | . | 2% | 1.7%
27 | COc1ccc(C2c3ccc(O)cc3Oc3ncn(CCCO)c(=N)c32)cc1 (stereo not drawn) | . | 0% | . | -8% | . | -3% | 4% | .
28 | CN1CCC(N(C)S(=O)(=O)c2ccc(NC(=O)COc3ccc(F)cc3Cl)cc2)CC1 | . | 0% | . | -6% | . | ? | -5% | .
29 | O=C(NCc1ccccc1F)c1cccc(S(=O)(=O)NCc2ccccc2)c1 | -30% | -3% | . | 2% | 19% | 34%[activator] | -11% | .
30 | CC(OC(=O)c1cccc(-n2cnnn2)c1)C(=O)Nc1ccc(F)cc1Cl (stereo not drawn) | 9% | -1% | . | 5% | 9%[46.1 µM] | -20% | . | .
31 | COc1ccc(N(C)S(=O)(=O)c2c(C)[nH]c(=O)[nH]c2=O)c(OC)c1 | 1% | 6% | -1% | 3% | -39% | 2% | 0% | 3.7%
32 | O=C(c1cc(-c2ccc(Cl)cc2)n(-c2ccc(Cl)cc2)n1)N1CCOCC1 | ? | -20% | ? | -15% | -20% | -24% | 1% | -9.8%
33 | CN(C)c1ccc(C(=O)NNC(=O)c2ccc(Cl)cc2)cc1 | -1% | 1% | . | -13% | 31%[14.2 µM] | 11% | 0% | .
34 | CCC(Cn1nnc2ccccc2c1=O)NC(=O)Nc1ccc(C)cc1 (stereo not drawn) | -8%[46.1 µM] | . | -12% | . | -6%[46.1 µM] | 11% | . | -2.1%
35 | CCC(C)c1ccc(NC(=O)C2CC2)cc1 (stereo not drawn) | -1% | -18% | -5% | -22% | 2% | 45%[activator] | -139% | 0.9%
36 | CCc1ccc(NC(=O)CS(=O)CC(=O)Nc2ccc(F)cc2F)cc1 (stereo not drawn) | 4% | -3% | -25% | 4% | 9% | -3% | -1% | ?
37 | CCc1cccc(CC)c1NC(=O)c1c(C)oc2ccc(O)c(CN3CCOCC3)c12 | -2%[46.1 µM] | . | -6% | . | -3%[46.1 µM] | -22% | . | -2.6%
38 | COc1cccc(CNC(=O)C(NS(=O)(=O)c2ccc3c(c2)oc(=O)n3C)C(C)C)c1 (stereo not drawn) | 9%[46.1 µM] | . | 6% | . | 1%[46.1 µM] | 4% | . | -1.4%
39 | COc1ccc(-n2c(=S)[nH]c3cc(C(=O)Nc4ccc(OC)c(OC)c4)ccc3c2=O)cc1 | -2% | 14% | -2% | 20% | ? | -10% | 3% | 3.1%
40 | O=C(CSc1nnnn1-c1cccnc1)Nc1ccc(OCc2ccccc2)cc1 | -9% | -1% | -2% | 2% | -24% | . | -2% | 0.9%
41 | O=C(NNC(=O)c1cnccn1)c1cccc([N+](=O)[O-])c1 | 2% | 8% | 6% | -1% | 13% | 25% | 5% | 0.6%
42 | COc1ccc(-c2[nH]nc3c2C2(C(=O)N(CC(=O)O)c4ccccc42)C(C#N)=C(N)O3)cc1OC (stereo not drawn) | 8% | 11% | 0% | -8% | ? | 4% | -11% | 1.1%
43 | COc1ccc(NC(=O)c2cc([N+](=O)[O-])ccc2N2CCNCC2)cc1 | 18% | -1% | . | -16% | -26%[46.1 µM] | -10% | 2% | .
44 | O=C(Nc1ccc(F)cc1)c1ccc(S(=O)(=O)NCC2CCCO2)cc1 (stereo not drawn) | -29% | 7% | 19% | 9% | -4% | . | -4% | -0.9%
45 | Oc1ccccc1Nc1nc(-c2ccccc2O)nc2ccccc12 | 5%[46.1 µM] | 0% | . | 6% | ? | -16% | 2% | .
46 | O=c1c2ccccc2[nH]c(=S)n1CCc1ccccc1 | ? | 3% | ? | 5% | ? | 41%[activator] | -8% | 2.3%
47 | COc1ccc(OC)c(CNC(=O)c2ccc(N3Cc4ccccc4Oc4ncccc43)s2)c1 | 6%[46.1 µM] | . | ? | . | . | -18% | . | -9.8%
48 | O=C(N/N=C/c1c(O)ccc2ccccc12)c1[nH]ncc1Br | 16µM* | ? | 6% | -12% | ? | 64%[activator] | 11% | -26%
49 | COc1cccc(N2CCN(C(=O)c3ccc4nc[nH]c4c3)CC2)c1 | 13%[46.1 µM] | 2% | . | 12% | -2%[46.1 µM] | -13% | 2% | .
50 | COc1ccc(NC(=O)Nc2cc(C)cc(C)c2)cn1 | 9%[46.1 µM] | 0% | . | 1% | 8%[46.1 µM] | -3% | -5% | .
51 | CCc1cccc(OCC(=O)Nc2ccc(S(=O)(=O)Nc3ncccn3)cc2)c1 | -19%[46.1 µM] | . | -23% | . | 12%[46.1 µM] | 1% | . | -1.7%
52 | CC(Sc1nccn1C)C(=O)Nc1ccccc1C#N (stereo not drawn) | 9%[46.1 µM] | . | 16% | . | 0%[46.1 µM] | -7% | . | 0.4%
53 | CC(C)CNC(=S)N1CCC(C(=O)c2ccc(F)cc2)CC1 | . | -4% | . | 4% | . | -1% | -2% | .
54 | O=C(Cn1nnc(-c2ccc(CN3CCOCC3)cc2)n1)NC1CCCCC1 | -5% | -3% | 5% | 5% | -14% | 5% | 3% | -4.8%
55 | O=C(O)[C@H](Cc1ccccc1)NC(=O)N1CCC(Cc2ccccc2)CC1 | . | -3% | . | 5% | . | -6% | 2% | .
56 | COc1ccc(CN2CCC(C(=O)Nc3ccc(Oc4cccnc4)cc3)CC2)c(C)c1C | . | 2% | . | 4% | . | ? | -4% | .
57 | CC1(C)N=C(c2ccccc2)[C@@H]2C(c3ccc([N+](=O)[O-])cc3)N21 (stereo partly drawn) | -8% | 6% | 0% | . | 8% | 0% | -2% | 0.2%

From PubChem BioAssay

Compounds as they come. About 4.6% of those tested had a hit in this group.
